High-throughput results deposited in PubChem by National Center for Advancing Translational Sciences (NCATS).
TRPML1 ag: qHTS for Agonists of the Human Mucolipin Transient Receptor Potential 1 (TRPML1). Mucolipin-1 (Homo sapiens), Q9GZU1. TRPML1-expressing cells, Ca2+ dye fluorescence, FDSS; host cell line not named in the record; reference of the full effect not given here. activation, % (test concentration not listed). hit rate 0.12% among 410,000; in the data active = activation above about 50%; inconclusive = about 30% to 50%; inactive = below about 30%; further: 0% is about no effect; the text of the record puts the active cut at 80%
Target sequence (Q9GZU1 whole entry, looked up): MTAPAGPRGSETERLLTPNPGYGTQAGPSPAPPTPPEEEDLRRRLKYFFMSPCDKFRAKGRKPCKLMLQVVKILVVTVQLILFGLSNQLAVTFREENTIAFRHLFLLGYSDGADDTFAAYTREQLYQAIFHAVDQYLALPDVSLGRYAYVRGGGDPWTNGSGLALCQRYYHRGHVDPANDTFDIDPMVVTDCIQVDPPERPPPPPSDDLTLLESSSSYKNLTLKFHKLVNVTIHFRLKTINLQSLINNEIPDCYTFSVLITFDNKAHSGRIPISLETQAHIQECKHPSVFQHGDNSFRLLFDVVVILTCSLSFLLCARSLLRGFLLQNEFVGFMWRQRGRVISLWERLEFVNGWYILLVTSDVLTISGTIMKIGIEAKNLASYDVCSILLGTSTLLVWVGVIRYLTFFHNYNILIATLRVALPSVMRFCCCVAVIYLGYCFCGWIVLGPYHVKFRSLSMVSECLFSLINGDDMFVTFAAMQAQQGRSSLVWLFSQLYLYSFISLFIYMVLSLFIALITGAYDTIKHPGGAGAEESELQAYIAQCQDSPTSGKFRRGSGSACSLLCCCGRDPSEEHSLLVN
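Tetracycline-induced TRPML1-DL cells are seeded and incubated overnight before loading with a no-wash Ca2+ dye and quencher. Agonist activity is taken from the 110 s fluorescence read following compound pin-transfer on an FDSS, before EC80 54-4 challenge.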
ClpP mod: qHTS Assay for Activators of ClpP; ATP-dependent Clp protease proteolytic subunit (Bacillus subtilis (strain 168)), P80244; purified B. subtilis ClpP, FRET peptide cleavage, 20 min; Potency, µM (highest dose often 57.5 µM), for the others: at the highest dose activity change, negative = active; hit rate 1.9% among 340,000; active = well fitted falling curve with a large enough effect; inconclusive = small, poorly fitted or top-dose-only effect; inactive = no such curve, though single readings can be large or run the other way; further: potency means the concentration at half of the fitted maximal effect; the source files actives as falling curves though it sought activators and does not explain the sign; nearly all actives have a fitted effect of over 65% in size; many hits overshoot -100%
Target sequence (P80244 whole entry, looked up): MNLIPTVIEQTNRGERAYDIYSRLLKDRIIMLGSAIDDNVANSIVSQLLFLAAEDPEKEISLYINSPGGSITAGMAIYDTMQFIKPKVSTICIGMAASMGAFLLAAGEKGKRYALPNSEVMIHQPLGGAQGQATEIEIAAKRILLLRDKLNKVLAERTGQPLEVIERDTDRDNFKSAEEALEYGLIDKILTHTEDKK
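FRET quenching reversal measured ClpP activation: 10 microg/mL B. subtilis ClpP at pH 8 with the FRET-FV decapeptide, read at 430 nm after 320 nm excitation. The 20-min minus 0-min signal was scaled between DMSO/no-enzyme wells and ADEP (5.8 microM final).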
TRPML1 inh: qHTS for Inhibitors of the Human Mucolipin Transient Receptor Potential 1 (TRPML1); TRPML1-inducible cells, Ca2+ dye fluorescence, FDSS; hits give low values; inhibition of EC80 agonist-evoked calcium signal; Mucolipin-1 (Homo sapiens), Q9GZU1; hit rate 0.02% among 390,000; activity change, negative = inhibition, % (concentration not given with the values); in the data active means activity change below about -50%; inconclusive means about -30% to -50%; inactive means above about -30%;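 further: stimulus is agonist 54-4 at its EC80 concentration; on the % scale 0 is the no-effect control and ±100 the full control effect; compound concentration not given in the record; the text of the record puts the active cut at -80%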
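Tet-induced TRPML1-DL cells loaded with Ca8 no-wash calcium dye were read kinetically on FDSS. Compound addition was followed by EC80 agonist 54-4 (4 uM final); inhibition was read over 110 s.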
gsp agonist: qHTS for Agonist of gsp, the Etiologic Mutation Responsible for Fibrous Dysplasia/McCune-Albright Syndrome: qHTS; Potency, µM (titrated, usually from 76.9 µM), without a hit: at the highest dose activation (cAMP increase), most hits filed as activators; gsp mutant cells, cAMP HTRF, 30 min; control for the full effect not named in the record; hit rate 0.13% among 340,000; active = well fitted activation curve with a large enough effect; inconclusive = small, poorly fitted or top-dose-only effect, or another doubt; inactive = no such curve, though single readings can be large or run the other way; cell line not stated here;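 further: phosphodiesterase inhibitor Ro 20-1724 added with compounds to block cAMP breakdown; potency means the concentration at half of the fitted maximal effect; nearly all actives have a fitted effect of over 60% in size; about a fifth of the inactives were tested at one dose only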
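Cells in DMEM/10% FBS with G418 were pretreated with compounds in DMSO plus […] (300 uM stock) for 30 min at 37C. cAMP was measured by HTRF (cAMP-d2 plus anti-cAMP antibody-K) after 30 min at room temperature.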
gsp antagonist: qHTS for Antagonists of gsp, the Etiologic Mutation Responsible for Fibrous Dysplasia/McCune-Albright Syndrome: qHTS; gsp-mutant cells, cAMP HTRF, 30 min; control for the full effect not named in the record; Potency, µM (highest dose often 76.9 µM), inactives show at the highest dose activity change, negative = inhibition, usual class: inhibitors; hit rate 0.4% among 340,000; AID 624288, 2012; active = falling curve of any shape with a large fitted effect; inconclusive = falling curve, mostly with a smaller effect; inactive = flat or rising curve; cell line not stated here;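 further: intracellular cAMP measured with PDE inhibitor Ro 20-1724 present during compound exposure; potency means the concentration at half of the fitted maximal effect; on the % scale 0 is the no-effect control and ±100 the full control effect; nearly all actives have a fitted effect of over 65% in size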
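Measurement of cellular cAMP by homogeneous time-resolved fluorescence following a 30 min compound exposure at 37C. The PDE inhibitor […] was present throughout; the assay buffer was DPBS with 0.05% BSA and 0.005% Tween 20.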
Menin MLL FP FL: qHTS Assay for Inhibitors Targeting the Menin-MLL Interaction in MLL Related Leukemias: Competition With Fluorescein Labeled MLL-derived Peptide; Fluorescence polarization, fluorescein-MLL peptide displacement from menin; FP activity change, % at 61.4 µM; 290,000 tested, under 10 active; inconclusive = falling polarisation curve, or a change in total fluorescence; inactive = total fluorescence flat and polarisation flat or rising; no compound was filed as active; the % refers to the polarisation; negative = inhibition;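 further: % of control where 0% means no effect; inhibitors lower the polarisation; unlabelled MLL peptide was the positive control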
Active calls of the source: *; & = joins results of further samples; [ ] = remark or other dose.

How did Cc1ccc(/C=N\NC(=O)CNC(=O)C23CC4CC(CC(C4)C2)C3)o1 do in these assays?
TRPML1 ag: 0.0; ClpP mod: -0.5%; TRPML1 inh: -9.0; gsp agonist: 0.4%; gsp antagonist: 12.3%

Results for COc1cc(C(=O)NCC(c2ccc3c(c2)OCO3)N2CCN(C)CC2)cc(OC)c1OC (configuration not stated) ?
TRPML1 ag: 0.9; ClpP mod: 1.3%; TRPML1 inh: 13.2

How did CN(C)CCNc1oc(-c2cccc(Cl)c2)nc1C#N do in these assays?
TRPML1 ag: 1.1; ClpP mod: 15.8µM*; TRPML1 inh: -4.4; gsp agonist: 12.1%; gsp antagonist: -0.3%; Menin MLL FP FL: 3.7

Results for CCc1cccc(C)c1Nc1c(-c2cccs2)nc2nc(C)cc(C)n12 ?
TRPML1 ag: 2.0; ClpP mod: 3.3%; TRPML1 inh: 11.7

What do the screens show for `O=C1C(=O)N(Cc2cccnc2)C(c2cccc(O)c2)/C1=C(\O)c1ccc2c(c1)OCCO2` (configuration not stated)?
TRPML1 ag: 0.6; ClpP mod: -0.9%; TRPML1 inh: 1.6; gsp agonist: inconclusive; gsp antagonist: -3.2%; Menin MLL FP FL: 1.6

How did CCOC(=O)N1CCC(N2C(=O)c3ccccc3C2=O)CC1 do in these assays?
TRPML1 ag: -0.5; ClpP mod: 0.3%; TRPML1 inh: -3.8; gsp agonist: 29.9%; gsp antagonist: -6.9%; Menin MLL FP FL: -0.8

What do the screens show for `O=C(CCSc1ccc(Cl)cc1)NC12CC3CC(CC(C3)C1)C2`?
TRPML1 ag: 3.8; ClpP mod: 1.1%; TRPML1 inh: 46.2; gsp agonist: -54.9%[inhibitor]; gsp antagonist: -25.3%; Menin MLL FP FL: -1.5

How did CC(CC(=O)O)CC(=O)Nc1cc([N+](=O)[O-])ccc1O (configuration not stated) do in these assays?
TRPML1 ag: 0.3; TRPML1 inh: 4.1; gsp agonist: -26.5%; gsp antagonist: -6.3%; Menin MLL FP FL: 3.6

What do the screens show for `COc1ccccc1N1CCN(CCCN2C(=O)C3CCCN3C2=O)CC1` (configuration not stated)?
TRPML1 ag: 2.0; ClpP mod: 1.3%; TRPML1 inh: -28.2; gsp agonist: -5.5%; gsp antagonist: 8.2%

What do the screens show for `COC(=O)c1ccc(CSc2nnc(-c3ccncc3)n2Cc2ccccc2)o1`?
TRPML1 ag: -1.4; ClpP mod: -0.1%; TRPML1 inh: 81.4; gsp agonist: -40.2%[inhibitor]; gsp antagonist: -5.5%; Menin MLL FP FL: 2.9

How did CCN(CC)S(=O)(=O)c1ccc2c(c1)N(CC(=O)NCC(C)c1ccccc1)C(=O)CO2 (configuration not stated) do in these assays?
TRPML1 ag: 0.0; ClpP mod: 2.3%; TRPML1 inh: 9.8

What do the screens show for `N#Cc1c(NC(=O)CSc2nc3ccccc3c(=O)n2Cc2ccco2)sc2c1CCCC2`?
TRPML1 ag: -0.7; ClpP mod: -8.3%; TRPML1 inh: 3.3; gsp agonist: inconclusive; gsp antagonist: -8.8%; Menin MLL FP FL: -6.4

How did CC(Oc1ccccc1)C(=O)NC1CCCCCCC1 (configuration not stated) do in these assays?
TRPML1 ag: 0.0; ClpP mod: 1.7%; TRPML1 inh: -8.4; gsp agonist: -22.5%; gsp antagonist: 1.6%

Results for CC(C)C[C@H]1CNC(=S)N1C[C@H]1CCCN1C[C@H](CC(C)C)N1C[C@H](CC(C)C)N(CCc2ccccc2)C1=S ?
TRPML1 ag: -0.1; ClpP mod: -1.4%; TRPML1 inh: -15.0

What do the screens show for `Cc1ccc(NC(=O)CC2S/C(=N/c3nccs3)N(C)C2=O)c(C)c1` (configuration not stated)?
TRPML1 ag: -0.2; ClpP mod: 1.6%; TRPML1 inh: 4.0; gsp agonist: 30.0%; gsp antagonist: -11.7%; Menin MLL FP FL: 2.6

Results for Cc1ccc2occ(-c3cc(-c4ccc(Cl)cc4)nc4c3COc3ccccc3-4)c(=O)c2c1 ?
TRPML1 ag: -0.3; ClpP mod: 0.3%; TRPML1 inh: 53.2

Results for CC(C)(C)OC(=O)N1Cc2[nH]c3ccccc3c2C[C@@H]1C(=O)O ?
TRPML1 ag: 1.7; ClpP mod: -7.8%; TRPML1 inh: 5.5; gsp agonist: 6.3%; gsp antagonist: 23.4%

What do the screens show for `CC1CC2C3CCC4=CC(=O)C=CC4(C)C3(F)C(O)CC2(C)C1(O)C(=O)CO` (configuration not stated)?
TRPML1 ag: 0.4; ClpP mod: -1.7%; TRPML1 inh: inconclusive; gsp agonist: 24.8%; gsp antagonist: 6.4%; Menin MLL FP FL: -9.1

What do the screens show for `CCCc1ccc2oc(C(=O)N(C)Cc3ccn[nH]3)c(C)c2c1`?
TRPML1 ag: 0.5; ClpP mod: -3.7%; TRPML1 inh: 41.4; gsp agonist: -7.5%; gsp antagonist: 11.5%; Menin MLL FP FL: 2.9

Results for CC1CC(C(=O)Nc2ccccc2)C(=O)O1 (configuration not stated) ?
TRPML1 ag: 0.4; TRPML1 inh: 16.2; gsp agonist: 3.5%[15.4 µM]; gsp antagonist: 7.6%

Results for N/C(=N\OC(=O)Cc1ccc([N+](=O)[O-])cc1)c1ccc([N+](=O)[O-])cc1 ?
TRPML1 ag: 0.9; TRPML1 inh: 10.5; gsp agonist: 23.3%; gsp antagonist: 6.8%; Menin MLL FP FL: -2.1

Results for COc1nc(N(CC(N)=O)S(=O)(=O)c2ccccc2)nc(C)c1Cl ?
TRPML1 ag: -0.7; ClpP mod: 0.7%; TRPML1 inh: 3.1; gsp agonist: -11.5%; gsp antagonist: -28.1%; Menin MLL FP FL: 3.2

How did CCCn1c2ccc(C)cc2c2nnc(SCCN3CCCCC3)nc21 do in these assays?
TRPML1 ag: -0.4&1.0; ClpP mod: -2.7%; TRPML1 inh: 15.9&5.7; gsp agonist: -8.7%[15.4 µM]; gsp antagonist: 0.1%; Menin MLL FP FL: -3.3

Results for COc1ccc(OC)c(CNC(=O)C2CCCN(C(=O)N(C)C)C2)c1 (configuration not stated) ?
TRPML1 ag: 5.0; ClpP mod: -0.1%; TRPML1 inh: -12.0; gsp agonist: 7.6%; gsp antagonist: 6.3%; Menin MLL FP FL: -1.2

Quoted at random: 2 compounds from above.
How did CCCn1c2ccc(C)cc2c2nnc(SCCN3CCCCC3)nc21 do in these assays?
TRPML1 ag: -0.4&1.0; ClpP mod: -2.7%; TRPML1 inh: 15.9&5.7; gsp agonist: -8.7%[15.4 µM]; gsp antagonist: 0.1%; Menin MLL FP FL: -3.3

Results for COc1ccc(OC)c(CNC(=O)C2CCCN(C(=O)N(C)C)C2)c1 (configuration not stated) ?
TRPML1 ag: 5.0; ClpP mod: -0.1%; TRPML1 inh: -12.0; gsp agonist: 7.6%; gsp antagonist: 6.3%; Menin MLL FP FL: -1.2

Next part:
How did CN(CCCC1CCCC1)C(=O)CCc1nnc(-c2ccccc2)o1 do in these assays?
TRPML1 ag: 0.7; TRPML1 inh: -5.6; gsp agonist: 5.9%; gsp antagonist: -2.0%; Menin MLL FP FL: 1.4

Results for OC1=C(O)c2nc3ccccc3nc21 ?
TRPML1 ag: 1.1; ClpP mod: -2.3%; TRPML1 inh: -6.2; gsp agonist: 17.2%; gsp antagonist: inconclusive; Menin MLL FP FL: -1.1

Results for Cc1cccc(OC(C)C(=O)N2CCCc3ccccc32)c1 (configuration not stated) ?
TRPML1 ag: -0.8; ClpP mod: -2.6%; TRPML1 inh: -5.7; gsp agonist: 1.8%[15.4 µM]; gsp antagonist: -7.9%; Menin MLL FP FL: 1.5

What do the screens show for `Cc1c(NC(=O)C(C)Oc2ncnc3ccccc23)c(=O)n(-c2ccccc2)n1C` (configuration not stated)?
TRPML1 ag: 0.7; ClpP mod: 0.3%; TRPML1 inh: -6.7; gsp agonist: 22.4%; gsp antagonist: 11.3%; Menin MLL FP FL: 1.0

Results for CC(C)COc1cccc(C(=O)Nc2ccc(CN3CCOCC3)cc2)c1 ?
TRPML1 ag: -0.1; ClpP mod: -3.2%; TRPML1 inh: 16.7; gsp agonist: -24.1%; gsp antagonist: -2.2%; Menin MLL FP FL: -6.1

What do the screens show for `CC(C)C1N=C2c3ccccc3N=C(SCC(=O)NCc3ccccc3Cl)N2C1=O` (configuration not stated)?
TRPML1 ag: 1.8; ClpP mod: 4.3%; TRPML1 inh: 30.7

What do the screens show for `Cc1onc(-c2c(Cl)cccc2Cl)c1C(=O)N1CCN(c2ccccc2)CC1`?
TRPML1 ag: 0.6; ClpP mod: -0.7%; TRPML1 inh: -7.0; gsp agonist: -4.6%; gsp antagonist: -1.1%; Menin MLL FP FL: -1.4

How did CC1CCN(S(=O)(=O)c2ccc3c(ccn3CCC(=O)NCc3ccc(N(C)C)cc3)c2)CC1 do in these assays?
TRPML1 ag: 0.7; ClpP mod: -1.5%; TRPML1 inh: 2.1

How did O=C(NCc1ccc(F)cc1)C1CC(=O)N(Cc2ccco2)C1 (configuration not stated) do in these assays?
TRPML1 ag: -0.3; ClpP mod: 0.9%; TRPML1 inh: -15.5; gsp agonist: inconclusive; gsp antagonist: 10.7%

Results for Cn1nnnc1SCC(=O)N1CCN(c2ccccc2)CC1 ?
TRPML1 ag: -0.2; ClpP mod: -2.3%; TRPML1 inh: 36.0; gsp agonist: 8.2%; gsp antagonist: -0.6%; Menin MLL FP FL: 0.7

What do the screens show for `CCOc1ccc2oc(=O)cc(CN3CCOCC3)c2c1`?
TRPML1 ag: -0.8; ClpP mod: inconclusive; TRPML1 inh: 17.2; gsp agonist: 11.3%[15.4 µM]; gsp antagonist: 3.2%; Menin MLL FP FL: 7.3

How did N#C/C(=C(/O)c1ccc([N+](=O)[O-])cc1)c1nnc2n1CCCCC2 do in these assays?
TRPML1 ag: 0.4; TRPML1 inh: 0.7; gsp agonist: 16.1%[15.4 µM]; gsp antagonist: -3.4%; Menin MLL FP FL: 2.6

What do the screens show for `O=C(COC(=O)c1ccco1)NC1CCCc2ccccc21` (configuration not stated)?
TRPML1 ag: -0.3; ClpP mod: 2.6%; TRPML1 inh: 28.8; gsp agonist: -11.0%; gsp antagonist: 4.9%

What do the screens show for `COc1cc(NC(=O)CSc2nc3cc(C)ccc3cc2C)c(C(=O)O)cc1OC`?
TRPML1 ag: 0.4; ClpP mod: -13.5%; TRPML1 inh: -16.8; gsp agonist: 1.4%; gsp antagonist: -15.9%; Menin MLL FP FL: 5.8
